LANA-H2B inh – blocks KSHV LANA binding to histone H2A/H2B; AID 2629; Q9QR71; cell-free LANA-H2A/H2B peptide, fluorescence polarization; 320,000 tested, 0.6% active; inhibition, % (concentration not given with the values); in the data active means inhibition mostly above about 10%, no sharp cut-off; inactive means mostly below about 6.7%;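 further: stock transfer was 7.5 nL into about 10 µL; 0% = median of vehicle wells and 100% = median of positive control wells; one replicate is shown; the record names a cut of 25% in any replicate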
Target sequence (Q9QR71 whole entry, looked up): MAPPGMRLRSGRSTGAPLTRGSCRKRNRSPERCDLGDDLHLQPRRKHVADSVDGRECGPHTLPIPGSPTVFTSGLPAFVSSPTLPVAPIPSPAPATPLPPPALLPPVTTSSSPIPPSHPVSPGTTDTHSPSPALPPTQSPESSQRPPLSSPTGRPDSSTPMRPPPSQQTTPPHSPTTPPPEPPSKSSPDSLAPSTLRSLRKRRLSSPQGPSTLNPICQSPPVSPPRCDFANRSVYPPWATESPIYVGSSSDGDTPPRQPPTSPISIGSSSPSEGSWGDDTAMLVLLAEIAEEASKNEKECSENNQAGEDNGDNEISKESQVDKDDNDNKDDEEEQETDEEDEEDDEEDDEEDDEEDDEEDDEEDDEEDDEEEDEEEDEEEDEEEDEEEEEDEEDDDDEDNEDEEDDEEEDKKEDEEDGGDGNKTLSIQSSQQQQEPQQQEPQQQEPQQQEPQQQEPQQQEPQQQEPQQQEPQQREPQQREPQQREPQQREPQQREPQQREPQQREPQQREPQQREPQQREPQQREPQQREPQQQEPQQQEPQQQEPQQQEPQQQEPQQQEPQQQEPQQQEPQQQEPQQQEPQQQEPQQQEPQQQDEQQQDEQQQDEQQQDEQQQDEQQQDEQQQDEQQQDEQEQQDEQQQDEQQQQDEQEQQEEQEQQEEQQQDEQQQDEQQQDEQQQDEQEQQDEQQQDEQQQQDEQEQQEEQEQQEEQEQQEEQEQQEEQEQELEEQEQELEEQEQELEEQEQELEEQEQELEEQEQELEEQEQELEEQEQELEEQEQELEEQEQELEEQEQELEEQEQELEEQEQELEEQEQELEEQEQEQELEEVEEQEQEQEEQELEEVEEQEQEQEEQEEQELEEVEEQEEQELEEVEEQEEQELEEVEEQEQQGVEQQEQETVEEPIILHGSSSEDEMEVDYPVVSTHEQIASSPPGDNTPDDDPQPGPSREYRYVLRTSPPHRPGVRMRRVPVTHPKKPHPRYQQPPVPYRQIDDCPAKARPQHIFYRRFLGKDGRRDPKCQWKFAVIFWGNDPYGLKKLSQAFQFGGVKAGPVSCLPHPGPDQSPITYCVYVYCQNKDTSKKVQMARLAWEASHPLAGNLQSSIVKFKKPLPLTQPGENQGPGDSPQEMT
rRNA inh HTS – inhibitors of bacterial rRNA selective over humanized ribosomes | E. coli WT GFP vs humanized-ribosome RFP mutants, fluorescence, 24 h; stronger effect = lower value; DMSO median 0, no signal -100 | AID 720706 | 350,000 tested, 1.6% active | GFP signal change (wild-type ribosome), % (test concentration not listed);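 active means significant combined selectivity score with lowered wild-type GFP, culture density cut under 30%, mutant RFP and density less affected; inactive means any of these conditions unmet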; further: one replicate is shown; some compounds called inactive have numbers as strong as hits
Calb FLC – affects C. albicans growth with fluconazole; C. albicans CaCi-2 (fluconazole-resistant clinical isolate) + fluconazole, Alamar Blue growth, 48 h; growth inhibition, % (concentration not given with the values); 300,000 tested, 0.57% active;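 active means most replicates above 75%; inconclusive means exactly half above 75%; inactive means most below 75%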;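 further: all wells also contain fluconazole at 8 µg/ml as a sub-toxic cotreatment; 0% = median of DMSO wells and 100% = median of geldanamycin control wells; wells of about 8 µL received 7.5 nL stock; the first replicate is given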
B2AR ag – agonists of human beta-2 adrenergic receptor inducing internalization; response, % (no concentration beside the values); AID 504454; Am2.2-beta2AR cells, FAP receptor internalization, flow cytometry; reference of the scale not given here; 340,000 tested, 0.43% active; P07550;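 active means response above a set limit, near 3 SD of response in nonfluorescent compounds, cut at about 42% in these data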;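 further: stock transfer was 100 nL into about 11 µL; a reference agonist was the positive control; negative values mostly stem from fluorescent compounds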
ALR H2O2 inh – blocks human ALR sulfhydryl oxidase activity; P55789; purified ALR, DTT oxidation, H2O2 HRP-luminol luminescence; inhibition, % (no concentration beside the values); 290,000 tested, 3.8% active;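 active means mean and each replicate at 75% or more; inconclusive means only one of the two met; inactive means neither met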;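 further: stock transfer was 7.5 nL into about 7.5 µL; 0% = neutral wells and 100% = wells with inactivated enzyme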
A1 inh – inhibitors of the anti-apoptotic protein A1, read as caspase activation | MEF A1-2A-BIM cells, Caspase-Glo 3/7 luminescence, 3 h; percent of clofoctol response, vehicle zero | caspase activation, % (concentration not given with the values) | 330,000 tested, 0.066% active | AID 2462;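 active means over half of replicate activation scores above 10%, or exactly half above 10 with the replicate mean above 10; inconclusive means replicate mean below 10 yet half the replicates above 10; inactive means over half of replicates below 10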;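 further: wells of about 30 µL received 50 nL stock; many hits fall short of the cut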
Beta cell apopt – beta cell apoptosis inhibition | INS-1E cytokine-induced death, ATP luminescence, 48 h; percent of positive-control rescue, neutral wells zero | protection from apoptosis, % (no concentration beside the values) | 300,000 tested, 0.8% active | AID 435005;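 active means all replicates at 75% or more, or half of them and the mean; inconclusive means half reach 75% but not the mean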;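 further: 0% = cytokine-treated negative control wells and 100% = positive control rescue; higher means more ATP so stronger rescue from cytokine killing; wells of about 40 µL received 100 nL stock; the first replicate is given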
T cruzi inh – blocks replication of Trypanosoma cruzi. 300,000 tested, 1.4% active. inhibition, % (test concentration not listed). T. cruzi beta-gal in NIH3T3, luminescence, 90 h. AID 1885;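 active means mean inhibition across valid replicates above about 55%, limit read from the data; inconclusive means mean below that limit but half or more replicates reach it; inactive means mean below it, under half of replicates reach it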;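 further: signal also drops with host cell toxicity which is not excluded here; 0% = plate median of DMSO wells and 100% = zero luminescence signal; higher percent means less beta-gal luminescence so fewer parasites; stock transfer was 50 nL into about 50 µL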
rRNA inh HTS OD600 – further read-out of rRNA inh HTS, marked with its call; OD600 change, %; measured here: OD600 growth;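 optical density of the mix in the first replicate; 0 = DMSO median and -100 = no signal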
rRNA inh HTS RFP – also measured in rRNA inh HTS; calls as there; RFP signal change, %; measured here: RFP humanized mutant strains;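 first replicate; 0 = DMSO median and -100 = no signal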
The depositor's hits bear a star; ? = inconclusive; · = no result given.

Structure,LANA-H2B inh,rRNA inh HTS,rRNA inh HTS OD600,rRNA inh HTS RFP,Calb FLC,B2AR ag,ALR H2O2 inh,A1 inh,Beta cell apopt,T cruzi inh
COc1ccc(CNCC(=O)Nc2cccc(S(N)(=O)=O)c2)cc1,3.4,5,7,-0.4,10,-4,-18,-0.2,-2,-21
OCC#Cc1cnc2ccccc2c1,-2.3,·,·,·,0,5,-4,0.2,-2,8
Fc1ccccc1COc1cccc(/C=N/n2cnnc2)c1,5.9,·,·,·,21,3,-3,-0.5,1,16
CC(=O)N/N=C(\C)CC(=O)Nc1ccc2c(c1)OCCO2,8.2,12,15,0.1,22,5,-1,2.0,-6,-5
COc1ccc(OC)c(CNn2c(-c3ccccc3F)nc3ccccc3c2=O)c1,2.2,-28,-32,-1.7,-7,-7,0,2.4,-8,20
O=C(c1ccc(Cl)c(S(=O)(=O)NCc2ccccc2)c1)N1CCN(c2ccccn2)CC1,-3.3,-9,3,5.7,1,0,-6,0.4,6,9
CC(=O)N/N=C(\C)CCc1ccccc1,0.3,6,-3,-2.8,1,-7,·,0.0,7,?
O=C(NCCC(=O)N1CCN(S(=O)(=O)c2ccccc2Cl)CC1)Nc1ccccc1,-1.0,-6,-7,-2.7,·,-9,0,1.0,0,·
CCCNS(=O)(=O)c1ccc(OCC(=O)N2CCc3ccccc3C2)c(C)c1,2.0,-19,-16,0.5,-4,-3,·,0.6,3,19
Cc1ccc(S(=O)(=O)c2c(C)nn(C(C)(C)C)c2OC(=O)CC(C)C)cc1,1.6,6,2,0.3,23,11,-8,-0.2,-11,1
CCCCc1ccc(Nc2nc(N3CCOCC3)nc(N3CCOCC3)n2)cc1,21*,8,14,-2.3,-1,-7,-2,-1.0,-3,4
COc1ccc(S(=O)(=O)N2CCN(Cc3ccco3)CC2)cc1,-4.4,3,3,1.4,3,1,-2,1.2,-4,1
Cc1nc2nc(NCc3cccs3)nn2c(C)c1Cl,-2.3,·,·,·,3,-7,-5,0.0,-2,-11
CC(C)n1c(SCC(=O)NC2CCCCC2)nnc1-c1ccco1,-0.7,0,-4,-2.3,1,-7,11,0.4,3,-6
O=P1(O)C=C(c2ccccc2)OC(c2ccccc2)=C1,-4.4,·,·,·,-4,-2,-15,-1.4,-1,-10
CN1CCN(C(=O)CSc2nnc(COc3ccc(Cl)cc3)o2)CC1,7.0,1,6,1.1,-2,3,2,-0.1,-7,4
COc1ccccc1N1CCN(C2CCCN(Cc3cc(F)cc(F)c3)C2)CC1 (centres undefined),3.5,-4,-3,0.5,-3,-1,8,0.8,·,15
COc1ccc(CCn2c(=O)[nH]c3cc(C(=O)NCCCN4CCOCC4)ccc3c2=O)cc1OC,1.4,6,-5,-1.2,12,-1,3,-0.1,-5,-6
CC(C)=Nc1ccccc1C1COC(=O)C1=N (centres undefined),·,-5,9,-4.6,3,12,·,-0.8,-5,-11
CN(Cc1ccccc1F)c1nc(-c2cccs2)nc2ccccc12,-5.9,-5,4,-1.9,7,-15,-3,-0.6,6,23
C/C(=N\NC(=O)c1c(Br)cnn1C)c1ccc(NC(=O)c2ccc(F)cc2)cc1,6.1,14,18,1.3,?,-8,-18,0.2,0,-8
O=C1C(Cl)=C(NCCN2CCCCC2)C(=O)c2ccccc21,3.2,·,·,·,-1,18,-71,-0.4,112*,67*
Cc1cccc(NC(=O)c2ccc(Cl)c(NC(=O)c3ccncc3)c2)c1C,-4.8,-15,-14,-4.9,19,1,-3,0.8,1,-8
O=C(Nc1ccc2c(c1)OCO2)Nc1ccc(Cl)cc1Cl,1.4,·,·,·,-4,6,-5,-1.5,·,14
O=C(N=C1SCC(=O)N1c1ccccc1Cl)c1ccco1,1.6,4,0,30,26,-3,·,-0.3,·,1
C/C(=N\NC(=O)CNc1cccc(C(F)(F)F)c1)c1cccs1,-0.9,-8,-8,-1.8,-21,-7,-7,1.2,-2,-20
NC(=O)c1ccc(-n2nnnc2Oc2ccc(Br)cc2)cc1,1.8,10,11,3.1,43,-3,2,-0.2,-7,-21
Cc1ccccc1NC(=O)C1CCCN(S(=O)(=O)c2ccc(-n3cnnn3)cc2)C1 (centres undefined),6.3,9,9,1.8,-16,8,-8,0.1,2,3
CC(=O)c1cccc(OCC(=O)Nc2cccc(C(=O)Nc3c(C)n(C)n(-c4ccccc4)c3=O)c2)c1,1.0,3,9,2.8,·,-1,·,1.4,-7,·
CN(C(=O)CSc1nc2c(c(=O)[nH]1)CCCC2)C1CCCCC1,3.4,-15*,0.7*,3.5*,-21,-8,-1,0.1,0,-6
Cc1cc(C)c(C#N)c(Sc2ccccc2N)n1,-2.2,·,·,·,-23,-4,-1,-0.1,-2,47
CS(=O)(=O)N(CC(=O)Nc1ccc(F)c(F)c1)c1cccc([N+](=O)[O-])c1,-1.0,·,·,·,-3,1,·,-1.0,-4,-6
CCN(CCn1cccn1)C(=O)CCc1nnc(-c2ccccc2)o1,-3.5,6,2,-2.7,12,-18,-9,0.7,3,1
CCOC(=O)C(C)n1cnc2c(nnn2-c2ccccc2)c1=O (centres undefined),-1.4,·,·,·,-3,0,1,-0.4,-7,-11
O=C(CCC(=O)OC(C(=O)c1ccccc1)c1ccccc1)Nc1ccccc1 (centres undefined),2.5,·,·,·,0,-2,-4,-0.2,-2,-22
O=C(O)CSC1c2ccccc2C(=O)N1c1ccccc1 (centres undefined),-1.1,·,·,·,0,5,-11,-0.6,1,-12
Cc1cc(C(=O)NNC(=S)Nc2cccc(C(F)(F)F)c2)nn1C,0.0,-19,-53,4.4,-3,2,51,-1.5,2,12
Cc1onc(-c2c(F)cccc2Cl)c1C(=O)Nc1ccc(Cl)c(S(=O)(=O)N(C)C)c1,-4.8,-9,-15,-0.6,·,-8,7,-0.9,7,·
COc1ccccc1C(=O)N1CCN(C(=O)c2ccncc2)CC1,1.8,·,·,·,-9,·,-5,-0.3,0,-16
O=C(CSc1nnc(NC(=O)C2CC(=O)N(c3ccc(F)cc3)C2)s1)NCC1CCCO1 (centres undefined),-2.0,5,14,1.7,5,1,-1,0.4,0,-4
O=C(CCN1C(=O)/C(=C/c2ccc(F)cc2)SC1=S)NCCc1cnc[nH]1,1.7,9,4,21,19,-4,98*,-0.4,-10,11
Cc1cc(Cl)ccc1Oc1ncnc2onc(C)c12,-1.1,14,4,-1.0,4,0,0,0.6,-7,-4
C=CCNc1nc(NC(C)(C)CO)nc(OC)n1,-1.1,·,·,·,4,1,6,0.7,-6,-9
CC(C)Cn1c(=O)c(C(=O)NCc2ccccn2)c(O)c2ccccc21,2.1,·,·,·,?,0,·,0.9,-4,-5
Cc1ccccc1N1C(=O)C(Oc2ccc(Cl)cc2)C1CNC(C)(C)C (centres undefined),2.5,-18,-40,38,-1,10,-4,-0.2,-3,18
Cc1cccc(CNC(=O)CCc2nnc(C3CCCCC3)o2)c1,-5.7,-10,-8,-1.4,23,0,-1,-0.4,-7,0
CCOC(=O)CN1C(=O)N[C@@H](CCc2ccccc2)[C@@H](C(=O)OC)[C@H]1C,-3.1,4,6,-3.8,1,0,2,-0.2,4,-3
COc1ccccc1-c1nnc(SCC(=O)Nc2nc(-c3ccccc3)cs2)n1C,-4.5,·,·,·,3,-2,1,-0.1,·,24
O=C(NC1CC1)C(Cl)c1ccccc1 (centres undefined),-2.3,9,13,-1.0,-1,3,-3,-1.0,·,-15
COc1cccc(NS(=O)(=O)c2ccc(Br)s2)c1,-3.9,·,·,·,1,4,-4,-0.5,3,-18
O=c1c2ccccc2nnn1CSc1nc2ccccc2[nH]1,-1.6,·,·,·,0,-1,6,-1.2,-1,6
O=C(c1ccc(-c2ccccc2)cc1)N1CCCC1,-4.2,·,·,·,-5,-4,-1,-0.1,0,-1
Cc1ccc(NC(=O)CCN2C(=O)C3CCCCC3C2=O)c(O)c1 (centres undefined),-0.4,8,10,3.1,4,3,·,0.0,-9,0
CC1(C)CC(=O)C(C=Nc2ccncc2)=C(O)C1,-5.0,·,·,·,-4,3,-9,-0.1,0,2
CC(C)NC(=O)COc1ccc(/C=N/NS(=O)(=O)c2ccccc2)cc1,3.3,·,·,·,0,1,6,-0.1,-11,-18
COc1ccc(NC(=O)COC(=O)c2cc(C)oc2C)cc1OC,-3.7,8,1,-1.8,·,-3,·,0.2,3,·
Cc1ccccc1NC(=O)C(=Cc1ccc(C(=O)O)cc1)C(=O)Nc1ccccc1C,·,2,9,-1.8,4,15,·,·,·,-49
O=C1CCC(C(=O)OCC(=O)c2ccccc2)N1 (centres undefined),-6.5,26,29,9.0,-9,-5,-3,0.0,-4,-2
CCC(CC)NC(=O)c1ccc2c(c1)OCCO2,0.9,·,·,·,30,3,-2,-0.1,-7,2
O=C(Nc1ccc(Br)cc1F)c1ccc2c(c1)N(Cc1ccccc1)C(=O)CS2=O (centres undefined),-2.5,-34,-44,3.2,10,-17,-4,-0.1,-1,-5

The list continues:
Structure,LANA-H2B inh,rRNA inh HTS,rRNA inh HTS OD600,rRNA inh HTS RFP,Calb FLC,B2AR ag,ALR H2O2 inh,A1 inh,Beta cell apopt,T cruzi inh
CCC(C)c1ccc(C(C)NC(=S)NCc2ccc(F)cc2)cc1 (centres undefined),-0.8,-11,-23,-2.1,-14,2,-1,-0.3,9,25
CN1CCN(S(=O)(=O)c2cccc(C(=O)N(Cc3ccccc3)c3ccccc3)c2)CC1,9.0,-8,-6,-0.9,-10,0,·,-1.5,-4,16
CCNC(=O)C1CC(=O)OC12CCCCC2 (centres undefined),2.0,·,·,·,-8,7,4,1.4,2,-10
O=C(Nc1ccc(Br)cc1)c1cccc(N2C(=O)C3C4CCC(C4)C3C2=O)c1 (centres undefined),-2.9,·,·,·,-5,8,-1,-0.6,7,-2
Cn1c(N2C(=O)CC(Cc3ccccc3)C2=O)nc2ccccc21 (centres undefined),4.3,·,·,·,-11,6,-5,0.5,2,4
O=C(CN1C(=O)c2cccc3cccc1c23)NCc1cccnc1,-4.3,·,·,·,3,-9,-7,0.1,-5,-10
CCOC(=O)c1[nH]c2ccc(OC)cc2c1NC(=S)N1CCN(c2cccc(Cl)c2)CC1,-1.8,·,·,·,4,-1,2,0.9,·,19
Cc1c(C)c2ccc(OCC(=O)N3CCN(c4ccccc4)CC3)cc2oc1=O,-2.4,·,·,·,44,-13,8,-0.4,2,4
O=C(NCCCn1ccnc1)C(=O)NCc1ccc(Cl)cc1,-6.0,·,·,·,4,-5,-14,0.2,14,-3
O=C(CNS(=O)(=O)c1cccc(C(F)(F)F)c1)Nc1ccccc1F,0.3,·,·,·,3,5,-1,-2.3,-5,-1
CCOC(=O)N1CCN(C(=O)C(CC(C)C)NS(=O)(=O)c2ccc3c(c2)oc(=O)n3C)CC1 (centres undefined),1.6,·,·,·,60,4,-5,0.5,0,9

Compound activity from PubChem BioAssay.

This is a subset; rates above refer to the full screens.
